# D2 potentiator: potentiates the human D2 dopamine receptor allosterically. 360,000 compounds, 0.23% hits. AID 624464. DiscoveRx D2 beta-arrestin cells, luminescence, 90 min; 100% = 57 uM dopamine signal. potentiation, % (concentration not given with the values). P14416; active = potentiation of 50% or more; inconclusive = 30% to 50%; inactive = 30% or less;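 note: tested on top of an EC20 dose of dopamine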
#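 PathHunter D2 cells, attached overnight at 37 deg C, received compound in DMSO plus dopamine at EC20 (50 nM final) for 90 min at 37 deg C. Beta-arrestin recruitment was read as luminescence after 1 h with detection reagent at ambient temperature.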
# PINK1 expr mod: changes PINK1 expression | 410,000 compounds, 0.2% hits | Potency, µM (series often up to 76.6 µM), for the others: top-dose activation (PINK1 increase), most hits filed as activators | PINK1 immunofluorescence, high-content cytometry, 24 h | AID 624263; active = well fitted activation curve with a large enough effect; inconclusive = small, poorly fitted or top-dose-only effect; inactive = flat fitted curve, though single readings scatter; cell line not stated here;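 note: potency is the fitted concentration of half-maximal effect; % of control where 0% means no effect; nearly all actives have a fitted effect of over 65% in size; a mitochondrial uncoupler was the plate control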
#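 Cells are seeded, rested 12 hours, then given compound at five concentrations or DMSO for 24 hours. After fixation, blocking and antibody staining, PINK1 amount and mitochondrial localization are scored; CCCP serves as control.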
# Six1-Eya2 blk: blocks human Six1 binding to Eya2. AlphaScreen GST-Six1/His-Eya2 binding, biochemical; active compounds read low; control for the full effect not named in the record. activity change, % (test concentration not listed). 360,000 compounds, 0.56% hits. AID 651725; in the data active = activity change below about -65%; inconclusive = about -30% to -65%; inactive = above about -30%; note: % is set by controls: 0 for no effect and ±100 for the full control effect
# Target sequence (O00167 whole entry, looked up): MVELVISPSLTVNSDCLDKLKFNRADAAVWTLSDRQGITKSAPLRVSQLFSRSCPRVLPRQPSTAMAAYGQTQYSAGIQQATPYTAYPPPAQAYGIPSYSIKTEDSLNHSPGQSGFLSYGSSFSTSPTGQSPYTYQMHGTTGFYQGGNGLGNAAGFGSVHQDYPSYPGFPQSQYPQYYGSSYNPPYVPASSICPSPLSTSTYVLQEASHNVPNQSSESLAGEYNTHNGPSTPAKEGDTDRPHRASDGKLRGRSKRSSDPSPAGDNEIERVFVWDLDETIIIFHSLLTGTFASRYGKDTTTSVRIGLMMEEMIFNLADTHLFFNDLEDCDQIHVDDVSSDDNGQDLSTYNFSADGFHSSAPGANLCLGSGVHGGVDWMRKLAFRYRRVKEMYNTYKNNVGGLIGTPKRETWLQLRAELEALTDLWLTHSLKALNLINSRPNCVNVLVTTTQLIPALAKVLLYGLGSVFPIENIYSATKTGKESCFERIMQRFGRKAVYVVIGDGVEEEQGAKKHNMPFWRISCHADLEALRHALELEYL
# Target sequence (Q15475 whole entry, looked up): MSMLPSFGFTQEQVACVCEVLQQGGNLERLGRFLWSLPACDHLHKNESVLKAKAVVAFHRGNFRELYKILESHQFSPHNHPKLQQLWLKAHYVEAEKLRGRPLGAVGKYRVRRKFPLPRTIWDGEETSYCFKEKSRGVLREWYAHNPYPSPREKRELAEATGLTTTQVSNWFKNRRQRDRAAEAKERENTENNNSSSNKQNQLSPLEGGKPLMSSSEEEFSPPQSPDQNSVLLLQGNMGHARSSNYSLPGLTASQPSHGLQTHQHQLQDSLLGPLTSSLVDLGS
#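 Homogeneous AlphaScreen proximity assay pairing GST-Six1 with His-tagged Eya2 (added as 5X mix: 250 nM and 500 nM) in 50 mM Tris pH 8.0, 300 mM NaCl, 1 mM TCEP. Glutathione donor and nickel acceptor beads; 1 h, 37 °C, dark.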
# TRPV1 PAM: enhances activation of the human vanilloid receptor TRPV1. 320,000 compounds, 0.02% hits. AID 540277. TRPV1-expressing cells, Fluo-8 calcium influx, capsaicin EC20 potentiation; host cell line not named in the record; control for the full effect not named in the record. potentiation, % at 8.33 µM; active means potentiation above 80%; inconclusive means 30% to 80%; inactive means below 30%; note: 0% is about no effect
#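 Cells expressing TRPV1 were dye-loaded with Fluo-8 and read kinetically: 10 s baseline, 3 min after compound (agonist portion), then 2 min after EC20 capsaicin (allosteric enhancer portion). Calcium-bound dye fluorescence at 480/520 nm.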
# CtBP-E1A inh: CtBP/E1A binding inhibition. AlphaScreen GST-E1A/His-CtBP binding, 1536-well; active compounds read low; control for the full effect not named in the record. activity change, % (no concentration beside the values). 340,000 compounds, 0.49% hits. AID 651724; in the data active means activity change below about -65%; inconclusive means about -30% to -65%; inactive means above about -30%; note: % is set by controls: 0 for no effect and ±100 for the full control effect
#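 AlphaScreen with 125 nM GST-E1A and 125 nM His-CtBP (5X stocks) in Tris pH 8.0, 300 mM NaCl, BSA, Tween 20, TCEP. Compounds preincubated 2 h at 37 deg C, then glutathione donor/nickel acceptor beads added for 1 h at 37 deg C in dark.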
# D2 agonist: agonists of human D2 dopamine receptor (beta-arrestin) | AID 624465 | activation, % (concentration not given with the values) | P14416 | DiscoveRx PathHunter D2 beta-arrestin, luminescence, 90 min; 100% = 57 uM dopamine signal | 360,000 compounds, 0.084% hits; in the data active = activation above about 40%; inconclusive = about 15% to 40%; inactive = below about 15%; note: the text of the record calls up to 30% inactive
#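 Agonist mode: compounds alone added to overnight-plated D2 PathHunter cells for 90 min at 37 C, with 57 uM final dopamine (EC100) defining full response. Beta-arrestin recruitment detected by chemiluminescent reagent, read after 1 h at ambient temperature.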
# Sfp inh: Sfp phosphopantetheinyl transferase inhibition. Q9F4F7. Biochemical Sfp PPTase activity, qHTS. Potency, µM, for inactives: max response, negative = inhibition, usual class: inhibitors. 310,000 compounds, 3.5% hits. AID 1490; active = well fitted inhibition curve with a large enough effect; inconclusive = small, poorly fitted or top-dose-only effect, or another doubt; inactive = no such curve, though single readings can be large or run the other way;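 note: the enzyme is Sfp with the accession as filed and its product quenches rhodamine fluorescence; potency is the fitted concentration of half-maximal effect; 0% = enzyme reaction without inhibitor and -100% = no enzyme wells; top concentration of the series not given in the record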
#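 Reaction rates are the 30-min fluorescence difference (ex 525, em 598 nm) in wells containing 15 nM Sfp, 5 uM rhodamine-CoA and 12.5 uM BHQ-2-YbbR at pH 7.6 with 10 mM MgCl2.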
# * marks the source's active call; other numbers are inactive results; ? = inconclusive; / = no result given; [ ] = remark or other dose. The order is random. About 3.7% of those tested had a hit in this group.
SMILES,D2 potentiator,PINK1 expr mod,Six1-Eya2 blk,TRPV1 PAM,CtBP-E1A inh,D2 agonist,Sfp inh
Cc1c(OC(C)C(=O)NCCCN2CCCC2=O)ccc2c3c(c(=O)oc12)CCCC3 (stereo not drawn),5,-1.0%,-1,-9,-5,-2.6,13%
CCn1c(=O)c([N+](=O)[O-])c(N2CCOCC2)c2ccccc21,-8,-0.1%,-2,3,2,0.6,0%
O=C(C[n+]1cccc(CO)c1)Nc1nc2ccccc2s1,-4,3.6%,7,10,0,-8.7,5%
Cc1occc1C(=O)Nc1c(F)cc(F)cc1Br,-9,-1.1%[38.3 µM],4,21,-2,3.5,11%
NC(=NCCc1c[nH]c2ccccc12)NS(=O)(=O)c1ccc(F)cc1,-2,-0.7%,1,6,-6,-0.2,4%
COc1ccc(-n2c(CCc3ccccc3)nnc2SCC(=O)c2ccc(Cl)cc2)cc1,-25,4.5%,-7,3,-5,-9.4,-8%
CCCCN(CC)C(=O)c1cc2c(=O)[nH]c3ccc(C)cc3c2s1,0,1.3%,3,-2,3,?,9%
CC(C)(C)NS(=O)(=O)c1ccc(OCC(=O)NCc2ccco2)cc1,1,-0.2%,7,-7,-5,-0.2,19%
COc1ccc(CCC(=O)N(C)CC(=O)Nc2ccc(Cl)c(C(F)(F)F)c2)cc1,-4,?,-3,1,-3,-4.8,6%
CCOC(=O)c1ccc(CNC(=O)C2CCCCC2C(=O)OCC(F)(F)F)o1 (stereo not drawn),-2,-1.3%,0,3,4,-1.7,-2%
O=C(O)c1ccccc1-c1ccccc1C(=O)Nc1cccc(Br)c1,0,-2.0%,5,6,-2,-2.3,23%
COc1cccc(NC(=S)/C(=C(\[O-])c2ccc(C)c([N+](=O)[O-])c2)[n+]2ccccc2)c1,-16,0.0%,-8,-2,-23,-2.6,56µM*
O=C1CCN1C1(C(=O)NC2CCCCC2)CCCC1,0,2.5%,-9,-6,2,-2.5,14%
NNC(=O)Cn1nc(-c2ccccc2)c2ccccc2c1=O,-1,0.8%,-1,-1,/,3.6,2%
Cc1ccccc1-c1cccc([C@@H]2C[C@H]3C(CN2)CON3C)c1 (stereo partly drawn),-12,-1.2%,-3,/,-3,-5.3,/
Cc1cc(NC(=O)CSCC(=O)OCc2nnc(-c3ccc(F)cc3)o2)no1,-10,-0.2%,1,/,1,1.7,/
Cc1sc(NC(=O)c2ccco2)c(CN2CCCCC2)c1C,-14,-1.2%,-12,20,-7,-2.7,11%
O=C(NNC(=O)c1cc(O)c(O)c(O)c1)NC1CCCCC1,-1,-1.3%,-1,1,0,-3.2,10µM*
N#Cc1c(-c2cccs2)nc(SCC(=O)c2ccc(Br)cc2)[nH]c1=O,-13,2.7%,-17,0,3,0.0,5%
COc1ccccc1CN1CC(C(=O)NCc2c(F)ccc(C)c2F)CCC1=O (stereo not drawn),-12,0.9%,4,8,-18,-0.3,6%
O=C(CC12CC3CC(CC(Br)(C3)C1)C2)NCc1ccccc1,-9,1.4%,-4,-28,11,1.1,15%
CC1(C(=O)NCc2ccc3c(c2)OCO3)CCN1C(=O)CCc1ccc(Cl)cc1Cl (stereo not drawn),-1,-0.2%,-1,/,1,2.0,/
Cc1ccc(/C=N\NC(=O)CNC(=O)C23CC4CC(CC(C4)C2)C3)o1,5,2.1%,0,14,-5,-1.8,56µM*
CC(=O)c1cc(C#N)c(N2CCCC2)nc1C,-35,-1.0%,-3,-4,-8,3.0,15%

# Some entries already given, limited to TRPV1 PAM, PINK1 expr mod and Six1-Eya2 blk:
Molecule,TRPV1 PAM,PINK1 expr mod,Six1-Eya2 blk
N#Cc1c(-c2cccs2)nc(SCC(=O)c2ccc(Br)cc2)[nH]c1=O,0,2.7%,-17
Cc1ccc(/C=N\NC(=O)CNC(=O)C23CC4CC(CC(C4)C2)C3)o1,14,2.1%,0
O=C1CCN1C1(C(=O)NC2CCCCC2)CCCC1,-6,2.5%,-9

# The list continues.
SMILES,D2 potentiator,PINK1 expr mod,Six1-Eya2 blk,TRPV1 PAM,CtBP-E1A inh,D2 agonist,Sfp inh
Cc1nc2cc(NC(=O)N3CC4(C)CC3CC(C)(C)C4)ccc2n1C (stereo not drawn),-4,0.5%[38.3 µM],3,3,3,1.4,1%
Cc1cc(S(=O)(=O)N2CCCC2)c(C)s1,-8,-2.2%,4,-3,4,-2.9,24%
CCCCn1c(CNC(C)=O)nc2ccccc21,1,1.0%,-1,-13,-1,-5.6,13%
Cc1ccc(-c2cc(N)n(Cc3ccc(Cl)cc3)n2)cc1,-6,6.5%,-9,?,0,-1.8,-1%
Cc1ccc(N2CCN(S(=O)(=O)c3c(C)nc4scc(C)n4c3=O)CC2)c(C)c1,-14,-1.3%,1,-8,-5,1.7,-21%
O=C(O)c1ccc(-n2ncc3c2/C(=C/c2cccc([N+](=O)[O-])c2)CC3)cc1,-10,0.0%,4,-2,/,-0.9,5%
Cc1c(NC(=O)N(C)c2ccccc2)c(=O)n(-c2ccccc2)n1C,-5,0.3%,12,5,/,-5.2,7%
CNC(=O)CCn1nc(-c2ccc(Cl)cc2)c2ccccc2c1=O,4,-0.8%,14,28,8,-5.3,9%
CC(=O)c1cc(F)ccc1OCC(=O)N1CCN(c2ccc(F)cc2)CC1,-17,-1.2%,4,14,/,3.2,18%
CC(NC(=S)NC(=O)c1cccs1)c1ccccc1 (stereo not drawn),-1,7.1%,-9,/,-28,-0.1,/
O=C1OCCOC2CCCc3oc(C4=CCCCC4)c1c32 (stereo not drawn),/,-0.4%,1,/,1,/,/
O=C(Nc1nnc(Cc2ccccc2)s1)C1CCC1,1,2.4%,0,22,-5,-2.3,7%
CCC(=O)NC1CC2CCCC(C1)N2Cc1ccc(C)cc1 (stereo not drawn),-78,-0.2%,6,-4,/,-2.7,9%
CCCCC[C@H]1CCCCC[C@H](O)C[C@H](O)[C@@H](O)/C=C/C(=O)O1,/,2.6%,-2,/,2,/,/
Cc1cc(NC(=O)CSc2nnc(C)c(=O)n2N)no1,-5,1.4%,-6,3,2,-3.6,16%
CN(Cc1ccccc1)C(=O)CN1CCN(S(=O)(=O)c2ccccc2F)CC1,-11,3.2%,0,/,-6,0.3,/
Clc1ccc(CO/N=C2\CCCc3nonc32)c(Cl)c1,5,2.1%,51,3,59,-2.5,-9%
O=C(Cc1ccccc1)Nc1c(C(=O)N2CCOCC2)cnn1-c1ccccc1,-1,/,0,12,1,-1.7,12%
Cc1ccc(-c2nc(CSCC(=O)N3CCCC3)c(C)o2)cc1,-31,/,-3,?,-2,-1.2,12%
Cc1cc(C)c(S(=O)(=O)NCC2CCC(C(=O)NCCCN3CCOCC3)CC2)c(C)c1 (stereo not drawn),4,-2.7%,12,-2,-1,-2.5,-8%
Clc1ccc(-c2nnc(-c3ccc(Br)o3)o2)c(Cl)c1,-5,19%[38.3 µM],2,-16,51,-1.8,7%
CCC(CC)NCC(O)COc1ccc(Br)cc1 (stereo not drawn),-12,1.0%,4,-3,-6,-0.8,-15%
COc1ccc(-n2c(SCC(=O)N3CCOCC3)nc3ccccc3c2=O)cc1,0,10%,5,-6,4,-3.2,17%
CCOc1ccc(NC(=O)COc2ccc(S(=O)(=O)N3CCCC3)cc2)cc1,-2,1.4%,-1,0,0,-3.2,12%
Cc1ccc(C(C)C)c(OCCCNCc2cccnc2)c1,-23,-2.7%,4,-9,3,-3.2,-11%
COCCNC(=O)/C(C#N)=C/c1c(N2CCN(c3ccccc3)CC2)nc2ccccn2c1=O,-7,1.1%,-12,-14,/,6.1,20%
CCn1c(CNc2cccc(Cl)c2)nnc1SCc1ccccc1,-9,-1.3%[38.3 µM],-2,9,-8,-1.6,6%
COc1ccc(C(=O)NCc2ccc(Cl)c(Cl)c2)cc1OC,-16,2.5%,1,4,1,-2.3,1%
CCOc1cc(NC(=O)c2ccco2)c(OCC)cc1NC(=O)COc1ccccc1,10,2.2%,-1,-12,0,-1.0,-15%
COc1ccc(/C=C2/N=C(c3cccs3)OC2=O)cc1OC(C)C,-4,-2.3%,4,3,0,0.2,-6%
Cc1ccc(S(=O)(=O)N2CCCC2C(=O)Oc2ccccc2)cc1 (stereo not drawn),-1,-1.7%,2,-17,8,-1.0,5%
Cc1ccc(Cn2c(=O)c3ccccc3n3nc(C)cc23)cc1,-17,6.7%,6,0,0,-2.8,7%
O=C(O)CCC(=O)c1cccc2ccccc12,-2,2.9%,1,-19,0,-2.1,-1%
Cc1cccc(NC(=O)CSCC(=O)Nc2cccc3ncccc23)c1,-1,2.2%,6,-6,-11,-4.1,/
Cc1ccc(N(CC(=O)NC2CCC(C)CC2)S(=O)(=O)c2cccnc2)cc1 (stereo not drawn),-3,1.3%,1,?,1,-4.5,14%
COc1ccccc1NC(=O)c1ccc[n+]([O-])c1,4,-0.7%,1,10,0,-2.0,12%
COc1ccc(CCNC(=O)C2CC(=O)N(CCc3ccc(C)cc3)C2)cc1OC (stereo not drawn),0,-0.3%,3,-6,3,1.1,3%
Cc1[nH]c2ccccc2c1CC#N,1,1.8%,-3,18,-2,-0.3,4%
Clc1ccc(-c2csc(-c3ccncc3)n2)cc1,-16,2.2%,4,-28,8,0.6,1%
Cc1cccc(C(=O)N[C@H](C(=O)Nc2ccc(C)c(S(=O)(=O)N3CCOCC3)c2)C(C)C)c1,-20,10%,-7,/,-4,-2.7,/
O=C(NCc1ccccn1)C1CCCN(S(=O)(=O)c2ccc(Br)cc2)C1 (stereo not drawn),-6,-0.9%,1,-5,1,1.7,-5%
Cc1cc(=O)[nH]c(-n2ncc(C#N)c2N)n1,-5,2.6%,-24,2,-21,-1.1,56µM*
COc1ccc(C(=O)/C=C/C(=O)N(CC(=O)NCCC(C)C)Cc2cccs2)c(O)c1,-20,-2.5%,4,-18,/,0.9,3.5µM*
NC(=O)Cn1cnc2nc3n(c2c1=O)CCC3,2,0.1%,10,9,-8,-2.4,-17%
CC1CCN(C(=O)C2CCN(S(=O)(=O)c3cccs3)CC2)CC1,-6,1.1%,0,-12,8,-2.2,-12%
Cc1ccccc1C(=O)NCCN1CCC(n2c(=O)[nH]c3ccccc32)CC1,/,0.3%,-1,/,-1,/,/
COc1ccc(C(=O)NC[C@H]2O[C@@H](n3cnc4c(N)ncnc43)[C@H](O)[C@@H]2O)cc1OC,-6,-0.5%,2,/,1,-3.8,/

# Compound activity as filed in PubChem BioAssay.
